Prx2 Sm inh – inhibitors of Schistosoma mansoni peroxiredoxin 2. AID 448. actives 0.07% (n = 65,000). S. mansoni Prx2 activity coupled to TGR/GSH (TGR is thioredoxin glutathione reductase), NADPH fluorescence loss, qHTS; some inactives read as strong as hits. Potency, µM; active means full or partial inhibition curve with a strong effect at the top dose; inconclusive means weaker partial or single-point curve; inactive means no accepted curve; further: series up to 57 µM; many of its hits are not listed in these tables
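Coupled assay in which S. mansoni TGR passes NADPH reducing equivalents via glutathione to Prx2, which reduces H2O2. Compounds were preincubated 15 min at room temperature with 25 nM TGR/50 nM Prx2 mix. Kinetic NADPH fluorescence loss (ex 365/em 450 nm) was monitored.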
Anthrax LT inh – inhibitors of anthrax lethal toxin internalization | Cells, anthrax lethal toxin internalization, FRET ratio (460/530) | Potency, µM (titrated, usually from 40 µM), without a hit: at the highest dose activity change, negative = inhibition, hits mostly inhibitors | actives 0.67% (n = 70,000) | AID 912; active = well fitted falling ratio curve with the 530 nm signal flat; inconclusive = other ratio curves, or a change in one channel alone; inactive = flat curves in the ratio and both channels; the % refers to the ratio; further: on the % scale 0 is the no-effect control and ±100 the full control effect; nearly all actives have a fitted effect of over 50% in size; tested in ME-180 cells; beta-lactamase reporter
Numbers without * were called inactive; ? = inconclusive; / = no result given; & = joins results of further samples; [ ] = another dose, or the depositor's remark. Potency means the concentration at half of the fitted maximal effect.

Start of the data: the first two entries (preview)
SMILES	Prx2 Sm inh	Anthrax LT inh
Cc1nn(C(=O)C(C)N2C(=O)c3ccccc3C2=O)c(C)c1Br (stereo not given)	>57	1%
O=S(=O)(Nc1cccc(C(F)(F)F)c1)c1cnc[nH]1	>57	-1%

Main list, from the first entry:
SMILES	Prx2 Sm inh	Anthrax LT inh
Cc1nn(C(=O)C(C)N2C(=O)c3ccccc3C2=O)c(C)c1Br (stereo not given)	>57	1%
O=S(=O)(Nc1cccc(C(F)(F)F)c1)c1cnc[nH]1	>57	-1%
COc1cccc(Oc2ccc(N)cc2)c1	>57	-4%
CCCN(CCC)[C@H]1CCc2c(F)ccc(O)c2C1	>57&>57	?
CC(=O)Nc1ccc(S(=O)(=O)N2CCCCC2c2cccnc2)cc1 (stereo not given)	>57	?
Cc1ccc2nc(-c3ccccn3)oc2c1	>57	-19%
COc1ccc(C(=O)Nc2cc(OC)cc(OC)c2)cc1	>57	-16%
COc1ccc2c(c1)-c1ccccc1S(=O)(=O)N2C(C)=O	>57	-9%
O=C(O)/C=C(/C(=O)O)[C@]12CCN3CC4=CCO[C@@H]5CC(=O)N[C@@H]1[C@H]5[C@H]4C[C@H]32	>57	-8%[8 µM]
COc1ccccc1N1CCN(CC(O)c2ccc3cc[nH]c3c2)CC1 (stereo not given)	>57	?
COC(=O)CN(c1c(C)cccc1C)S(C)(=O)=O	>57	?
FC(F)(F)c1ccccc1Cl	/	-2%
O=C(CSc1nnnn1-c1ccc2c(c1)OCO2)NCc1ccccc1	>57	-7%
COC(=O)C1CCCN1C(=O)C1CCCN1C(=O)CNC(=O)OCc1ccccc1 (stereo not given)	>57	?
CC(C)CCOc1ccc(C(=O)O)cc1	>57	2%
CC(=O)/C=C(/C)NC(Cc1c[nH]c2ccccc12)C(=O)O (stereo not given)	>57	0%
COc1ccccc1N(CN1CCCC1=O)C(=O)c1c(F)cccc1F	>57	-12%
Cn1nc(C(=O)NCc2ccccn2)c2ccccc2c1=O	>57	0%
COC(=O)[C@@]1(Cc2ccc(F)cc2)[C@H]2c3cc(C(=O)N(C)C)n(Cc4ccc(C)c(F)c4F)c3C[C@H]2CN1C(=O)c1ccccc1	>57	-16%
CCCCC(CC)CNC(=O)c1ccc2c(c1)OCO2 (stereo not given)	/	?
CS(=O)(=O)N(CC(=O)NCCSc1ccc(Cl)cc1)c1ccc2c(c1)OCO2	>57	-9%
COc1ccc(OC)c(NC(=O)CCN2CCC(C)CC2)c1	>57	-8%
CSc1ccccc1C(=O)Nc1cccc(C(C)O)c1 (stereo not given)	>57	-12%
COc1ccc(-c2nnn(CC(=O)c3ccccc3)n2)cc1OC	>57	?
O=C(CSc1nc2ccccc2[nH]1)N1CCN(c2ccccc2)CC1	/	-20%
CC1=C(C(=O)OCC2CCCO2)C(c2ccncc2)C2=C(CCCC2=O)N1 (stereo not given)	/	?
CCOC(=O)N1CCC(NC(=O)C2CCCN2C(=O)OCc2ccccc2)CC1 (stereo not given)	>57	-16%
CCOc1cc2[nH]c(=O)n(CC3CCC(C(=O)NC(C)CC)CC3)c(=O)c2cc1OCC (stereo not given)	>57	14%
CCCCNc1c(C(=O)OCC)c(=O)[nH]c2ccccc12	>57	-4%
COc1ccc2oc(=O)c(C(=O)NCC3CCCO3)cc2c1 (stereo not given)	>57	18%
COc1cccc(C(=O)CSc2nnc(-c3ccco3)n2CC2CCCO2)c1 (stereo not given)	>57	0%
CC(O)CNc1nc2c(c(=O)n(C)c(=O)n2C)n1Cc1cccc(Br)c1 (stereo not given)	>57	3%
Cc1ccc(-c2ccc(/C=N/n3cnnc3)o2)cc1Cl	/	5%
COc1cc(C2C(C#N)=C(C)NC3=C2C(=O)c2ccccc23)cc(OC)c1OC (stereo not given)	>57	?
Cc1ccc(S(=O)(=O)N2CCCN(S(=O)(=O)c3ccc(C)cc3)CC2)cc1	>57	-4%
CCn1c(=O)cc(OCC(=O)Nc2ccccc2C#N)c2ccccc21	>57	?
CCOC(=O)N1CCN(S(=O)(=O)c2c(C)[nH]c(=O)[nH]c2=O)CC1	>57	-11%
O=C(NCc1ccco1)c1ccc(COCC(F)(F)F)cc1	>57	-12%
CCOC(=O)N1CCC(Nc2c(-c3ccc(C)cc3)c(=O)c2=O)CC1	>57	?
c1ccc2c(c1)Cc1cc(CN3CCOCC3)ccc1-2	/	-6%
NNc1nncn1N	>57	3%[8 µM]
CNC(=O)CN(C1CCCCC1)S(=O)(=O)c1ccc(OC)c(Cl)c1	>57	8%
C=CCn1c(=O)c2ccccc2n2c(SCc3nc(N)nc(Nc4ccccc4C)n3)nnc12	>57	?
Cc1nn(C)c(C)c1S(=O)(=O)N(CC(=O)NCCN1CCOCC1)c1ccc(C(C)C)cc1	>57	2%
O=C(Cc1ccccc1)Nc1ccc(NC(=O)C2CC2)nc1	>57	-19%
O=C(Nc1ccc2c(c1)OCO2)C1Cc2ccccc2CN1S(=O)(=O)c1cccs1 (stereo not given)	>57	?
O=C(CCCCn1c(=O)c2ccccc2n(CC(=O)Nc2ccc(F)cc2)c1=O)NCc1ccco1	>57	-15%
O=C(Cn1cnc2ccccc21)Nc1cc(C(F)(F)F)ccc1N1CCOCC1	>57	-9%
CC(=O)C(C(C)=O)C(NC(=O)c1cccnc1)(C(F)(F)F)C(F)(F)F	>57	11%
CCn1c2ccccc2c2cc(NC(=O)c3ccco3)ccc21	/	13µM*
Nc1nc(SCC(=O)C23CC4CC(CC(C4)C2)C3)n[nH]1	>57	-5%
O=c1c(-c2ccc(F)c(F)c2)nc2cncnc2n1Cc1ccccc1	>57	-6%
Cc1ccc(-n2nnnc2SCC(=O)N2CCc3ccccc3C2)c(C)c1	>57	-9%
O=C(CN1CCCC1=O)NC1(C(F)(F)F)NC(=O)N(Cc2ccccc2)C1=O (stereo not given)	>57	-15%
CCN1CCN(C(c2cc(OC)c(OC)c(OC)c2)c2nnnn2C(C)C)CC1 (stereo not given)	>57	4%
COC1(OC)N=C(N)C2(C#N)C(c3ccc(C)cc3)C12C#N (stereo not given)	>57	8%
O=c1[nH]cnc2c1C1(CCCC1)Cc1ccccc1-2	>57	-10%
COc1ccc2[nH]cc(C(=O)CN3CCN(C/C=C/c4ccccc4)CC3)c2c1	>57	-10%
CCc1ccc(NC(=O)CSc2nc3cc(C(=O)OC)ccc3c(=O)n2Cc2ccco2)cc1	>57	26%
O=C(NCCCN1CCCCC1)c1ccc2c(c1)NC(=O)C(N1CCCCC1)S2 (stereo not given)	>57	-3%

Other entries follow.
SMILES	Prx2 Sm inh	Anthrax LT inh
COCCn1c(C)cc(C(=O)CSc2nnc(C)s2)c1C	>57	2%
O=C(CSc1nnc(CNC(=O)c2c(F)cccc2Cl)o1)NCc1ccc2c(c1)OCO2	>57	9%
O=C(CSCc1cnn(-c2ccccc2)c1-n1cccc1)NCC1CCCO1 (stereo not given)	>57	-12%
Cc1ccc(CC(=O)Nc2nncs2)cc1	>57	-10%
CC1CCN(CC[C@H]2CCCN2S(=O)(=O)c2cccc(O)c2)CC1	>57	?
COC(=O)NCC(c1cccnc1)N1CCN(c2ccccc2F)CC1 (stereo not given)	>57	17%
CC(=O)OC[C@H]1O[C@@H](O/N=C(\C)CCN2CCCc3nc(C)c(C)cc32)[C@H](OC(C)=O)[C@@H](OC(C)=O)[C@H]1OC(C)=O	/	-29%[8 µM]
CCOC(=O)CC(=O)CSc1nnc2c(n1)[nH]c1ccccc12	>57	-2%
Cc1nc(CNS(=O)(=O)c2cc(F)ccc2F)cs1	>57	-3%
Cc1nc2[nH]c(=O)c3c(n2n1)NC1=C(C(=O)CC(C)(C)C1)C3c1ccccc1 (stereo not given)	>57	/
COc1ccc(C(=O)n2c(-c3ccco3)nc3ccccc32)cc1	/	?
CN(C)C(=O)Cn1c(SCC(=O)NC2CCCCC2)nc2ccccc21	>57	0%
COc1cccc(NC(=O)CSc2ccccn2)c1	>57	-3%
O=C(NCc1ccccc1F)c1cccs1	>57	/
CCc1nnc(NC(=O)CCC(=O)NCC2CCCO2)s1 (stereo not given)	>57	/

An excerpt of these results, with values under each structure:
Every second line gives: Prx2 Sm inh | Anthrax LT inh
> O=C(CSc1nnnn1-c1ccc2c(c1)OCO2)NCc1ccccc1
 : >57 | -7%
> COC(=O)C1CCCN1C(=O)C1CCCN1C(=O)CNC(=O)OCc1ccccc1 (stereo not given)
 : >57 | ?
> CC(C)CCOc1ccc(C(=O)O)cc1
 : >57 | 2%
> CC(=O)/C=C(/C)NC(Cc1c[nH]c2ccccc12)C(=O)O (stereo not given)
 : >57 | 0%

Next part
SMILES	Prx2 Sm inh	Anthrax LT inh
COc1ccccc1N1CCN(Cc2cc(Br)c(O)c3ncccc23)CC1	>57	?
O=C1c2[nH]nc(-c3ccccc3O)c2C(c2cccc(Cl)c2)N1CC1CCCO1 (stereo not given)	>57	?
CN(C)CCN=Cc1c(O)n(-c2cccc3ccccc23)c(=O)[nH]c1=O	>57	/
CCN1C(=O)[C@H]2[C@H]3[C@H](O)[C@H](O)C/C(=N/OC/C=C(\C)CCC=C(C)C)[C@H]3CC[C@@H]2C1=O	/	2%[1.6 µM]
Cn1cnc([N+](=O)[O-])c1Sc1ncnc2nc[nH]c12	?	?
C[N@@+]1(Cc2ccc(Cl)c(Cl)c2)CCC[C@@H]1c1ccc[n+](Cc2ccc(Cl)c(Cl)c2)c1	>57	-5%[8 µM]
CCn1cc(C(=O)NCc2ccc3c(c2)OCO3)c(=O)c2cc(S(=O)(=O)N3CCOCC3)ccc21	>57	?
CCOc1cc(C2NC(=O)N(C)C(C)=C2C(=O)OC)cc(Br)c1O (stereo not given)	>57	?
COCC(=O)N1CCC2(CCCN(Cc3ccccc3OC)C2)CC1	>57	0%
COc1ccc(-n2c(Cc3cccn3C)nnc2SCC(=O)Nc2nc(C)cs2)cc1	>57	10%
CCOC(=O)c1[nH]c(C)c(C(=O)Nc2cc(OC)ccc2OC)c1C	>57	?
COc1ccc(CC(=O)N2CC(=O)N(CCc3ccccc3)C(=O)C2)cc1	>57	-15%
Cc1cccc(CNc2ncncc2-c2cccc(C#N)c2)c1	>57	?
COc1ccc(CC(=O)OCc2nnc(C3COc4ccccc4O3)o2)cc1OC (stereo not given)	>57	0%
CCCc1ccc(Oc2c(-c3ccc(O)c(C)c3O)n[nH]c2C)cc1	/	?
COc1ccc(-n2c(=O)c(-c3cccs3)nc3cnc(Oc4ccccc4)nc32)cc1	>57	?
CC1=C(C(=O)OC(C)C)C(c2cccnc2)C2=C(CCCC2=O)N1 (stereo not given)	/	?
Cc1cc(C)cc(NS(=O)(=O)c2ccc3[nH]c(=O)[nH]c3c2)c1	>57	11%
CC(C)CNC(=O)c1cc(-c2ccco2)on1	>57	-23%
O=S(=O)(NCCC1=CCCCC1)c1cccc(S(=O)(=O)N2CCOCC2)c1	>57	-21%
COc1ccc(CNC(=O)C2CSCCS2)cc1 (stereo not given)	>57	-27%
C=CCn1c(SCC(=O)N2CCN(C(=O)c3ccco3)CC2)nc2sc(CC)cc2c1=O	>57	-2%
N#CN=C1CCCCCN1CC(N)=O	/	8%
Nc1nc(CN2CCN(Cc3ccc4c(c3)OCO4)CC2)nc(Nc2ccccc2)n1	>57	-11%
O=C(Nc1cccc2ncccc12)c1ccc2c(c1)OCCO2	>57	11%
O=C(Nc1ccc(O)cc1C(=O)O)c1ccc2c(c1)C(=O)N(Cc1ccco1)C2=O	>57	2%
COc1ccccc1C(=O)N1CCNC(=O)C1CC(=O)Nc1ccc(Cl)cc1 (stereo not given)	>57	17%
CCCNC(=O)Nc1cc(OCC)c(N2CCOCC2)cc1OCC	/	7%
CC1(C)CC(=O)c2sc(N)nc2C1	>57	-5%
CN1C[C@H](C(=O)N[C@]2(C)O[C@@]3(O)[C@@H]4CCCN4C(=O)[C@H](Cc4ccccc4)N3C2=O)C=C2c3cccc4[nH]cc(c34)C[C@H]21	/	?
CSc1ccccc1C(=O)NCCSC(C)(C)C	>57	-2%
Oc1ccc2ccccc2c1Cc1c(O)ccc2ccccc12	>57	-16%[8 µM]
CC1(C)CC(=O)C(C=NCCN2CCN(C(=O)Cc3ccc(Cl)cc3)CC2)=C(O)C1	>57	-5%
N=c1n(Cc2ccc(Cl)cc2)c2ccccc2n1CC(O)c1ccco1 (stereo not given)	>57	?
CCOc1ccc(-n2c(SCC)nc3c(c2=O)SCC3)cc1	>57	0%
COc1ccc(CCNC(=O)CS(=O)Cc2nc(-c3cccs3)oc2C)cc1OC (stereo not given)	>57	-10%
CCOC(=O)Nc1ccc2c(c1)N(C(=O)CN(CC)CC)c1ccccc1C=C2	>57	-18%
Cc1cc(Nc2ccc(N=Nc3ccc(O)c4ncccc34)cc2)nc(C)n1	>57	?
O=C(O)CSc1nnc(-c2cc3ccccc3o2)n1-c1ccccc1	>57	/
CC1(C)NC(=O)N(CCOCCSc2ccccc2)C1=O	>57	8%

Laid out differently: results already given
Value order – Prx2 Sm inh | Anthrax LT inh
- O=C(Nc1cccc2ncccc12)c1ccc2c(c1)OCCO2
  >57 | 11%
- CCc1ccc(NC(=O)CSc2nc3cc(C(=O)OC)ccc3c(=O)n2Cc2ccco2)cc1
  >57 | 26%
- CCOC(=O)N1CCN(S(=O)(=O)c2c(C)[nH]c(=O)[nH]c2=O)CC1
  >57 | -11%
- Oc1ccc2ccccc2c1Cc1c(O)ccc2ccccc12
  >57 | -16%[8 µM]
- COc1ccc(-c2nnn(CC(=O)c3ccccc3)n2)cc1OC
  >57 | ?
- CCOC(=O)N1CCC(NC(=O)C2CCCN2C(=O)OCc2ccccc2)CC1 (stereo not given)
  >57 | -16%

Only part of the results is shown; the hit share may differ from the screen's.
